High-throughput results deposited in PubChem by ICCB-Longwood Screening Facility, Harvard Medical School.
Bm FixLJ act: activators of Burkholderia fixLJ two-component system; B. multivorans fixK-promoter GFP reporter, 18 h; hits give high values; z-score (test concentration not listed); actives 0.3% (n = 29,000); AID 1918990;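 active = replicate mean overnight rise in green fluorescent reporter signal, 3 or more SD over negative controls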;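 note: score is relative to vehicle wells of the plate; 300 nL library stock went into each well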
An asterisk follows results filed as active; & = joins results of further samples. The list is partial (hit frequency here may not be typical).

canonical_smiles	Bm FixLJ act
Cc1ccc(CNC(=O)Cn2cccc2C(=O)c2ccccc2C)cc1	-0.65
CC(C)C(=O)N1CCn2nc(CNC(=O)N3CCCC(CO)C3)cc2C1 (stereo not drawn)	0.02
CC(=O)c1ccc(NC(=O)CCOc2ccccc2)cc1	-0.68
Cn1cc(C(=O)NCc2ccc(Cl)cc2)c(=O)c2cc(S(=O)(=O)N3CCCCCC3)ccc21	-1.89
CCOC(=O)c1c(NC(=O)COc2cccc(C)c2C)sc2c1CCCCC2	-1.28
CCOc1nc2cccc(C(=O)OC(C)OC(=O)OC3CCCCC3)c2n1Cc1ccc(-c2ccccc2-c2nn[nH]n2)cc1 (stereo not drawn)	-1.18
CCOC(=O)c1ccc(NC(=O)CC(=O)Nc2ccc3nc4n(c(=O)c3c2)CCCCC4)cc1	-1.64
CC(=O)Nc1ccc(NC(=O)CCc2nc3cccnc3n2Cc2cccs2)cc1	1.55
CCOC(=O)c1cnc2c(ccc3ccccc32)c1Nc1ccc(Cl)cc1	-0.73
COc1cccc(-c2ccc3c(N)c(C(=O)c4ccc(F)cc4)sc3n2)c1	-3.34
CC(C)c1nc(CN(C)C(=O)NCCCc2nc3ccccc3[nH]2)cs1	0.59
COc1cc(C2c3c(oc4ccccc4c3=O)C(=O)N2c2nnc(C(C)C)s2)cc(OC)c1OC (stereo not drawn)	-1.78
Cc1cc2nn(-c3ccccc3)nc2cc1NC(=O)Cc1ccc(Cl)cc1	0.86
CC1CCN(S(=O)(=O)c2ccc3c(c2)N(CC(=O)NCCN(C)C)C(=O)CS3)CC1	-1.19
CCCCN(C)c1nc2c(S(=O)(=O)c3ccc(CC)cc3)nnn2c2ccc(Cl)cc12	0.45
CCOc1ccc(NC(=O)Cn2c(=O)n(CCc3ccccc3)c(=O)c3c4c(sc32)CCCC4)cc1	-1.47
COc1ccc(NC(=O)Cn2c(=O)n(Cc3ccccc3Cl)c(=O)c3cc(OC)c(OC)cc32)cc1OC	-0.19
COc1cccc(NC(=O)C2CCCN(S(=O)(=O)c3c(C)nn(C)c3C)C2)c1 (stereo not drawn)	-0.32
CN(Cc1ccccc1)C(=O)c1cc2c(s1)-c1ccc(Cl)cc1SC2	-0.75
Cc1ccc(COc2cccc3cc(-c4noc(-c5ccc(C)cc5)n4)c(=O)oc23)cc1	-0.1

Taken from the results shown for reference:
canonical_smiles	Bm FixLJ act
Cc1ccc(CNC(=O)Cn2cccc2C(=O)c2ccccc2C)cc1	-0.65
CC(C)C(=O)N1CCn2nc(CNC(=O)N3CCCC(CO)C3)cc2C1 (stereo not drawn)	0.02

Next part.
canonical_smiles	Bm FixLJ act
COc1ccc(-c2cc(-c3ccccc3)nc3c2COc2ccc(Cl)cc2-3)cc1	0.54
CCN(Cc1ccccc1)Cc1c(O)ccc2c(=O)c(-c3ccccc3OC)c(C(F)(F)F)oc12	-2.5
COc1cc(NC(=O)Cn2c(=O)n(CC3CCCO3)c(=O)c3ccccc32)cc(OC)c1 (stereo not drawn)	0.49
CC(C)c1ccc(Nc2cc(C(=O)NCc3cccs3)c3ccccc3n2)cc1	-0.91
CCN1CCN(C(=O)c2ccc3c(c2)N(Cc2ccccc2)C(=O)c2ccccc2S3(=O)=O)CC1	-0.83
O=C(C1CCC1)N1CCCC(c2ncnn2Cc2ccc(F)cc2)C1 (stereo not drawn)	0.85
O=C1CC2(CCN(C(=O)c3ccc(N4CCCCC4)cc3)CC2)CN1	-1.48
CCOC(=O)c1c(NC(=O)C(C)Sc2cn(CCNC(=O)c3ccc(OC)c(OC)c3)c3ccccc23)sc2c1CCC2 (stereo not drawn)	-0.08
COc1cccc(-c2nn(C)c3sc(C(=O)N4CCN(c5cccc(C(F)(F)F)c5)CC4)cc23)c1	1.06
COc1cc2c(C(=O)N3CCN(c4ccc(C)cc4)C(C)C3)cn(CC(C)C)c(=O)c2cc1OC (stereo not drawn)	-1.74
CCOc1cc2c(cc1OCC)C(c1c(F)cccc1Cl)CC(=O)N2 (stereo not drawn)	-0.87
CCCCCOc1ccc(Cn2c(=O)oc3ccc(C)cc32)cc1OC	-0.43
CCCc1nc(C)c(CNC(=O)CCNS(C)(=O)=O)s1	-2.81
COc1ccc(Cn2nc3n(c2=O)-c2ccccc2OC3)cc1	-0.54
OC(Cn1cncn1)(Cn1cncn1)c1ccc(F)cc1F	-0.94&-2.38
COc1ccc(S(=O)(=O)Nc2c(C)nc3nc(C)[nH]n3c2=O)cc1	-1.54
COc1ccccc1-c1cc2nc(C)c(CCC(=O)Nc3cc(C)ccc3C)c(C)n2n1	-2.04
COCc1c(C(=O)N2CC3C4CCC(CC4)C3C2)noc1C (stereo not drawn)	0.62
COc1cc(CNCCSc2nnnn2C)cc(Cl)c1OCc1ccccc1	-2.21
O=C(NCc1cc(N2CCOCC2)ncn1)C(O)c1cccc(Cl)c1 (stereo not drawn)	0.47

The list goes on.
canonical_smiles	Bm FixLJ act
COc1ccc(OC)c(C(C)Nc2ccc(C(=O)N(C)C)cn2)c1 (stereo not drawn)	-0.57
CN(C(=O)CN(Cc1cocn1)Cc1cocn1)c1ccccc1	0
CC(=O)N1CCc2c(sc3c2c(=O)n(-c2ccc(C)cc2)c(=O)n3CC(=O)Nc2ccccc2)C1	-0.46
Cc1ccc(C)c(N2CCN(C(=O)c3ccc4c(c3)N(Cc3ccc(F)cc3)C(=O)c3ccccc3S4=O)CC2)c1 (stereo not drawn)	-0.95
Cc1cccc(NC(=O)c2c(Br)sc3c2CCCC3)c1	1.05
COc1cc(OC)c(NC(=O)Cn2c(=O)nc(-c3ccccc3)c3ccccc32)cc1Cl	0.48
COc1cc2c(cc1OC)C1(CCN(C(=O)c3ccnn3C)CC1)OCC2	0.09
Cc1cccc(Cn2nnc3c(=O)[nH]c(C4CCN(C(=O)c5ccccc5F)CC4)nc32)c1	-0.79
O=C(Cn1nnc(-c2ccc(Cl)cc2)n1)NCc1ccc(F)cc1	-2.33
Cc1sc2nc(CCNC(=O)N3CCSCC3)[nH]c(=O)c2c1C	-3.51
O=S1(=O)CC2C(C1)N(CC1CC1)CCN2Cc1cnc2cc(O)ccc2c1 (stereo not drawn)	-1.17
COc1ccc(Cn2c(=O)c3cccnc3n(CC(=O)Nc3ccc(C)c(F)c3)c2=O)cc1	-0.36
O=C1CCCN1CC1CCN(C(=O)c2ccc(-c3ccccc3F)nc2)CC1	-0.68
O=C(c1cc2c(s1)-c1ccccc1OC2)N1CCN(c2ccccc2)CC1	0.1
Cc1ccc(C)c(Cn2nnc(C(=O)NCc3ccc(Cl)cc3Cl)c2N)c1	0.03
Cc1nnc(NC(=O)c2ccccc2)s1	0.01
O=C(Nc1ccc(C(F)(F)F)cc1)C1CCC(CNS(=O)(=O)c2cccc3nsnc23)CC1 (stereo not drawn)	-0.85
COc1ccc(NC(=O)C2CCC(CNS(=O)(=O)c3ccc(Br)s3)CC2)cc1OC (stereo not drawn)	-1.38
CCOc1ccccc1C1C(C(=O)Nc2ccccc2)=C(C)Nc2nc(-c3ccccc3)nn21 (stereo not drawn)	-1.14
CCN(CC)c1ccc(NC(=O)CCc2nc3cccnc3n2Cc2cccs2)c(C)c1	-0.34

Next section
canonical_smiles	Bm FixLJ act
COc1ccc(C2CC(=O)c3cc(-c4nc(-c5ccc(Cl)cc5)c(C)s4)c(=O)[nH]c3C2)cc1 (stereo not drawn)	0.3
COCc1cc(C)nc2sc(C(=O)Nc3ccc(OC(F)(F)F)cc3)c(N)c12	-1.18
CCOC(=O)CCn1cnc2onc(-c3ccccc3Cl)c2c1=O	-0.19
COc1ccc2cc3cc(C(=O)NCc4ccccc4OC)oc3nc2c1	-1.08
CCOc1ccc(Oc2nc(NCC(C)C)nc(NC(C)(C)C)n2)nn1	-1.03
O=C1[C@@H]2CSC(c3ccc(Cl)cc3)N2C(=O)N1c1ccccc1 (stereo partly drawn)	-1.92
CC(C)Sc1ncc(Cl)c(C(=O)Nc2nnc(C(C)C)s2)n1	0.95
Cc1cc(C)c2nc(N3CCCC(C(=O)NCc4cccc(Br)c4)C3)sc2c1 (stereo not drawn)	-0.01
COC(=O)CCn1cnc2onc(-c3cc(F)cc(F)c3)c2c1=O	-0.55
O=C(Nc1cccc(O)c1)c1noc2c1CCc1ccccc1-2	0.77
CCC(=O)N1CCc2cc(Br)cc(S(=O)(=O)CCC(=O)NCCc3ccccc3)c21	0
COc1cccc(-n2c(-c3ccc(Cl)cc3)cc3c2CC(C)(C)CC3=O)c1	-0.13
COc1ccc(OC)c(C2Nc3c(C)cc(C)cc3-c3cc(C)nn32)c1 (stereo not drawn)	0.91
Cc1noc(C)c1CCc1nc(C2CCCC2)nn1CC(F)(F)F	0.93
Cc1ccccc1NCc1nc2ccccc2n1CCOc1ccccc1	0.04
FC(F)(F)c1ccc(Cn2ccnc2-c2ccc3nonc3c2)cn1	0.44
CCN1Cc2ccccc2CC1C(=O)NCc1ccc2c(c1)OCCCO2 (stereo not drawn)	-1.88
Cc1cc2nc(-c3ccc(OCc4ccccc4Cl)cc3)cc(C(F)(F)F)n2n1	-1.64
Brc1ccc(-c2ccc(CNCCSc3nnnn3-c3ccccc3)o2)cc1	-0.03
O=C(c1ccc2ccccc2c1O)N1CCC2(CC1)NCCNC2=O	0.4

New compounds follow:
canonical_smiles	Bm FixLJ act
COc1ccc(-c2cc(C)nc3c(-c4ccc(OC)c(OC)c4)c(C)nn23)cc1	-1.2
COc1ccc(OCC(=O)Nc2ccc(O)c(-c3nc4ccccc4s3)c2)cc1	0.91
COc1ccc(C(=O)NC(c2ccc(OC)nc2)C2CC(O)C2)c(C)c1 (stereo not drawn)	-0.66
COc1ccc(-c2cc(C(F)(F)F)c(C#N)c(SCC(=O)Nc3cccc(C)c3)n2)cc1	-1.75
Cc1ccc2nc(SCC(=O)N(C)Cc3nncn3C(C)C)[nH]c2c1	-3.55
CC(C)C(=O)NCC(=O)N1CCC(c2[nH]ncc2-c2cccc(F)c2)CC1	-1.69
COC(=O)c1ccc([C@H]2Nc3ccc(S(=O)(=O)Nc4cccc(C)c4)cc3[C@H]3C=CC[C@H]32)cc1	-0.19
COc1ccc2c(c1)CCc1c(C(=O)Nc3c(C)nn(Cc4ccc(Cl)cc4)c3C)noc1-2	-1.18
COc1ccc(OC)c(-c2c[nH]c(C(=O)N3CCOCC3)c2)c1	-1.59
COc1ccc2c(c1)CCc1c(C(=O)Nc3cc(OC)c(Cl)cc3OC)noc1-2	-0.6
O=C(Nc1ncc(Cc2ccc(F)cc2)s1)c1ccc2c(c1)CC(c1ccccc1)OC2=O (stereo not drawn)	-3.03
Cc1cccc(C)c1NC(=O)c1ccc2c(c1)N(Cc1cccc(Cl)c1)C(=O)c1ccccc1S2=O (stereo not drawn)	0.38
COc1ccc(C(=O)/C=C/c2cn(CC(O)CN3CCc4ccccc43)c3ccccc23)cc1OC (stereo not drawn)	0.32
Cc1ccc(N2C(=O)c3n[nH]c(C)c3C2c2ccc(C(C)C)cc2)cc1 (stereo not drawn)	-3.68
Cc1cccc(C)c1NC(=O)N1CCC(n2cc(-c3ccccn3)nn2)CC1	-1.55
CCOc1ccc(NC(=O)c2cnn3c2NC(C)=C(C(=O)Nc2ccc(Cl)cc2)C3c2ccc(OC)c(OC)c2)cc1 (stereo not drawn)	-0.47
Cc1oc2cc3oc(=O)c(CCC(=O)N4CCCCC4)c(C)c3cc2c1C	0.39
CCOC(=O)c1ccccc1NC(=O)Cn1ncc2c1-c1ccccc1OC2	0.75
COc1ccc(/C=C/c2nc(C#N)c(N3CCN(c4ccccc4)CC3)o2)cc1OC	1.38
CCOC(=O)c1cc2c(=O)n3ccccc3nc2n(CC2CCCO2)c1=NC(=O)c1ccccc1OCC (stereo not drawn)	-0.79

Further compounds follow.
canonical_smiles	Bm FixLJ act
CCN(C(=O)c1cnc2ccc(C)cn2c1=O)c1ccccc1	0.46
CCOc1ccc2c(c1)c(=O)c(S(=O)(=O)c1ccc(Cl)cc1)cn2Cc1ccccc1C	-0.18
CCn1c(Cn2cccn2)nnc1C1CCN(C(=O)c2cccc(C)n2)CC1	0.01
Cc1cc2oc(C(=O)Nc3ccc(S(=O)(=O)N4CCCCCC4)cc3)cc(=O)c2cc1C	-2.08
C=C1CC[C@H](O)C/C1=C/C=C1\CCC[C@]2(C)C([C@H](C)/C=C/[C@H](C)C(C)C)CC[C@@H]12 (stereo partly drawn)	-1.18
O=C(CCc1ccccc1)N1CCC2C(CCC(=O)N2CCc2cnc[nH]2)C1 (stereo not drawn)	-0.09
CCc1cccc(NC(=O)Cn2c(=O)n(CC(=O)NCCc3ccccc3)c(=O)c3ccccc32)c1	0.16
COc1cc(NC(=O)Cn2c(C)cc3ccccc3c2=O)cc(OC)c1OC	0.39
Cc1cc(C)c(OCC(=O)Nc2cccc(-c3nc4ncccc4o3)c2)c(Br)c1	0.2
COc1ccc2cc3c(N)nn(C(=O)c4ccc(OC)c(OC)c4)c3nc2c1	-0.36
C#CC(C)(CC)NC(=O)Cn1nnc(-c2ccc(OCc3c(F)cccc3Cl)cc2)n1 (stereo not drawn)	0.9

Entries listed so far that contain two or more sulfur atoms, in the order listed:
canonical_smiles	Bm FixLJ act
CC1CCN(S(=O)(=O)c2ccc3c(c2)N(CC(=O)NCCN(C)C)C(=O)CS3)CC1	-1.19
CN(Cc1ccccc1)C(=O)c1cc2c(s1)-c1ccc(Cl)cc1SC2	-0.75
CCOC(=O)c1c(NC(=O)C(C)Sc2cn(CCNC(=O)c3ccc(OC)c(OC)c3)c3ccccc23)sc2c1CCC2 (stereo not drawn)	-0.08
CCCc1nc(C)c(CNC(=O)CCNS(C)(=O)=O)s1	-2.81
Cc1sc2nc(CCNC(=O)N3CCSCC3)[nH]c(=O)c2c1C	-3.51
O=C(Nc1ccc(C(F)(F)F)cc1)C1CCC(CNS(=O)(=O)c2cccc3nsnc23)CC1 (stereo not drawn)	-0.85
COc1ccc(NC(=O)C2CCC(CNS(=O)(=O)c3ccc(Br)s3)CC2)cc1OC (stereo not drawn)	-1.38
CC(C)Sc1ncc(Cl)c(C(=O)Nc2nnc(C(C)C)s2)n1	0.95
